LASV entry inh: inhibitors of Lassa virus binding or cell entry. Lassa virus pseudotype entry inhibition, cell reporter; control for the full effect not named in the record. Potency, µM (doses to about 37.9 µM), for inactives: at the highest dose activity change, negative = inhibition, hits mostly inhibitors. 300,000 compounds, 1.2% hits; active means well fitted inhibition curve with a large enough effect; inconclusive means small, poorly fitted or top-dose-only effect, or effect the other way; inactive means flat fitted curve, though single readings scatter; tested in HEK293 cells; further: on the % scale 0 is the no-effect control and ±100 the full control effect; nearly all actives have a fitted effect of over 50% in size; luciferase read-out
SARS PLP yeast: blocks SARS-CoV papain-like protease in a yeast assay | S. cerevisiae expressing SARS-CoV PLpro, growth rescue; control for the full effect not named in the record | Potency, µM (doses to about 32.9 µM), for the others: at the highest dose activity, positive = growth rescue | 330,000 compounds, 0.19% hits; active means well fitted rising curve with a large enough effect; inconclusive means small, poorly fitted or top-dose-only effect; inactive means no such curve, though single readings can be large or run the other way; further: 0% is about no effect; nearly all actives have a fitted effect of over 55% in size; growth read by luminescence after 48 h
Cruzain inh noDet: blocks cruzain activity in detergent-free assay; 200,000 compounds, 2.3% hits; purified cruzain, Z-FR-AMC fluorescence, no detergent; Potency, µM, without a hit: max response, negative = inhibition, most hits filed as inhibitors; AID 1476; P25779;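 further: plate controls were enzyme without inhibitor for no effect and buffer without enzyme for full effect; nearly all actives have a fitted effect of over 40% in size; top concentration of the series not given in the record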
Target sequence (P25779 123-467 limits assumed): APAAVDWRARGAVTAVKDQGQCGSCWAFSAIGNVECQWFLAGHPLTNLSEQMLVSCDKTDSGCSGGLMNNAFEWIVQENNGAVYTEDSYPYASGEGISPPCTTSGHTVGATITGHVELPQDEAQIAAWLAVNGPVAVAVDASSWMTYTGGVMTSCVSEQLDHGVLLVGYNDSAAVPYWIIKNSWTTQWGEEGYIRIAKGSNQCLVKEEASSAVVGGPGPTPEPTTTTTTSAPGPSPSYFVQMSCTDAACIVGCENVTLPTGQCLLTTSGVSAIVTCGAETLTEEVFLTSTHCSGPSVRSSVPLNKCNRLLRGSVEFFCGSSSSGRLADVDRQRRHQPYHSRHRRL
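Purified cruzain at 1.5 nM, pre-incubated 15 min with compound at room temperature in 100 mM sodium acetate pH 5.5, 5 mM DTT, 0.00005% Triton X-100. Reaction started with 2 uM Z-FR-AMC; AMC fluorescence increase over 60 s gives rate.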
Cruzain Triton: cruzain (T. cruzi) inhibition with detergent; purified cruzain, Z-FR-AMC fluorescence, 0.01% Triton; Potency, µM, for the others: max response, negative = inhibition, usual class: inhibitors; 200,000 compounds, 0.43% hits;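 further: plate controls were neutral wells for no effect and buffer without enzyme for full effect; nearly all actives have a fitted effect of over 40% in size; top concentration of the series not given in the record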
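Detergent-containing run (0.01% Triton X-100) in acetate buffer pH 5.5 with 5 mM DTT: enzyme at 1.5 nM final, 15 min compound preincubation at room temperature, then 2 uM Z-FR-AMC substrate. Activity taken as 60 s fluorescence increase at 360/450 nm.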
RE007 growth inh: less growth of the S. pombe RE007 Vpr strain. S. pombe RE007 Vpr strain, BacTiter-Glo ATP luminescence, 24 h; control for the full effect not named in the record. Potency, µM (series often up to 92.2 µM), without a hit: at the top dose activity change, negative = less growth. 360,000 compounds, 0.21% hits; active = well fitted falling curve with a large enough effect; inconclusive = small, poorly fitted or top-dose-only effect; inactive = no such curve, though single readings can be large or run the other way;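 further: on the % scale 0 is the no-effect control and ±100 the full control effect; nearly all actives have a fitted effect of over 50% in size; the assay follows cell death caused by Vpr and the record does not say whether a fall means rescue or toxicity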
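Fission yeast RE007 carrying one integrated HIV-1 vpr copy, seeded at OD 0.01 in PMG+AL medium with 23 nL pinned compound. Grown 24 h at 30 degrees; viability read by BacTiter-Glo luminescence after 5 min.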
Marburg entry inh: Marburg virus entry inhibition; Marburg virus pseudotyped entry inhibition, cell reporter; control for the full effect not named in the record; about a third of the inactives were read at about 46 µM; Potency, µM (top dose mostly 37.8 µM), without a hit: at the top dose activity change, negative = inhibition, hits mostly inhibitors; 300,000 compounds, 1.8% hits; active = well fitted inhibition curve with a large enough effect; inconclusive = small, poorly fitted or top-dose-only effect, or effect the other way; inactive = flat fitted curve, though single readings scatter; tested in HEK293 cells; about a fifth of its hits are not listed in these tables; further: on the % scale 0 is the no-effect control and ±100 the full control effect; luciferase read-out
NS1 function inh: inhibitors of influenza NS1 protein function; Potency, µM (doses to about 46.1 µM), without a hit: at the top dose activity, positive = more growth; S. cerevisiae slowed by influenza A NS1, growth recovery by OD600; 270,000 compounds, 0.4% hits; active means well fitted rising curve with a large enough effect; inconclusive means small, poorly fitted or top-dose-only effect; inactive means no such curve, though single readings can be large or run the other way; further: nearly all actives have a fitted effect of over 50% in size
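A cell-based growth assay was used: compounds that relieve NS1-induced slow growth of budding yeast raise OD600. Assay medium was yeast nitrogen base with ammonium sulphate and -URA supplement, pH 6.0, with 2% galactose.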
StopGo reporter: FMDV 2A StopGo reporter, luciferase signal | human cells with a luciferase reporter of 2A StopGo recoding; control for the full effect not named in the record | Potency, µM (top dose mostly 57.9 µM), for inactives: at the highest dose signal change, negative = less light | 410,000 compounds, 1.2% hits | AID 1159524; active = well fitted falling curve with a large enough effect; inconclusive = small, poorly fitted or top-dose-only effect; inactive = no such curve, though single readings can be large or run the other way; tested in HEK293T cells; further: on the % scale 0 is the no-effect control and ±100 the full control effect; nearly all actives have a fitted effect of over 45% in size; luciferase light after 4 h
The depositor's hits bear a star; ? = inconclusive; . = no result given; & = joins results of further samples; [ ] = remark or other dose. Unless noted, the call rests on the fitted dose curve; in most records, active means well fitted curve in the direction sought with a large enough effect; inconclusive means small, poorly fitted or top-dose-only effect, or another doubt; inactive means no such curve, though single readings can be large; an effect the other way counts as inactive or inconclusive. Potency means the concentration at half of the fitted maximal effect.

Structure	LASV entry inh	SARS PLP yeast	Cruzain inh noDet	Cruzain Triton	RE007 growth inh	Marburg entry inh	NS1 function inh	StopGo reporter
CCCSc1nc2c(cnn2-c2ccc(Cl)cc2)c(=O)[nH]1	5.1%	-1.0%	10µM*	-0.4%	10.9%	3.7%	-3.3%	.
O=C(Cn1c(=O)oc2cc(S(=O)(=O)N3CCCCC3)ccc21)Nc1cccc(Cl)c1	.	.	?	-4.8%	.	?	.	-19.5%
CCOC(=O)C(C)NC(=O)c1c2c(nc3ccccc13)C(=O)N(C1CCCCC1)C2 (stereo not drawn)	-8.3%[46.1 µM]	.	1.0%	-3.4%	.	.	.	-15.5%
CN(Cc1ccc(F)cc1)S(=O)(=O)c1nnc(NC(=O)c2ccccc2Cl)s1	17.8%[46.1 µM]	.	?	-18.7%	.	.	.	13.4%
CCC(=O)N(Cc1cc(=O)[nH]c2ccccc12)c1cccc(C)c1	-13.7%	-11.0%	-6.4%	-4.2%	15.4%	-6.6%	7.6%	-16.4%
COc1ccc(NC(=O)c2oc3ccc(S(=O)(=O)N4CCCCC4)cc3c2C)cc1	?	.	-1.7%	1.0%	.	.	.	17.8µM*
O=C(Nc1ccccc1)Nc1ccc2ccccc2n1	.	-0.1%	.	.	10.4%	.	-2.0%	5.1%
N#CC1=C(N)Oc2n[nH]c(-c3ccccc3)c2C1c1ccsc1 (stereo not drawn)	4.4%	27.1%	-23.7%	-10.1%	0.2%	-2.2%	18.6%	-15.2%
Clc1ccc(CSc2nc(NCCc3ccccc3)c3ccccc3n2)cc1	28.9%[46.1 µM]	.	0.8%	3.9%	.	.	.	?
CN(C)c1ccc(NC(=O)Nc2csc3ccccc23)cc1	-29.0%[46.1 µM]	-0.6%	.	.	-21.7%	?	14.3%	13.2%
Cc1nn(C(=O)c2ccccc2F)c(C)c1S(=O)(=O)N1CCOCC1	0.2%[46.1 µM]	.	5.1%	-0.1%	.	.	.	-4.3%
CCc1ccc(CNC(=O)C2CCCN(S(=O)(=O)N(CC)c3ccccc3)C2)cc1 (stereo not drawn)	?	1.5%	.	.	-3.5%	?	-2.4%	1.4%
CCOC(=O)CSc1nc2sc3c(c2c(=O)n1CC)CC(C)(C)OC3	0.0%	-25.0%	4.6%	-0.7%	8.0%	8.0%	-0.9%	.
COC(=O)CCCC1=CC2=C(c3ccccc3)C(=O)C(C)(OC(=O)C3CCCC3)C(=O)C2=CN1C1CCCC1 (stereo not drawn)	.	1.1%	.	.	-15.8%	.	2.7%	-12.0%
COc1ccc(S(=O)(=O)NCCc2csc(-c3ccc(F)cc3)n2)cc1	5.1%[46.1 µM]	.	0.6%	-8.9%	.	.	.	-1.2%
CC(=O)c1c(C)nc(-c2ccc(Cl)cc2Cl)n1O	10.9%	-13.5%	9.5%	-1.1%	2.7%	15.2%	-41.2%	-18.1%
O=C(CCN1C(=O)/C(=C\c2ccc(F)cc2)SC1=S)Nc1ccc(O)cc1	-27.9%	-8.9%	.	.	0.0%	-1.7%	8.5%	-4.1%
CCCN1CCC(=O)N([C@H](CO)c2ccccc2)CC1	.	6.6%	.	.	21.6%	.	-27.5%	-4.8%
COc1ccc(COC(=O)C2=C(C)NC(=O)NC2c2ccc(O)c(OC)c2)cc1 (stereo not drawn)	?	-2.5%	-4.4%	2.6%	-23.3%	-8.2%	5.3%	.
CCOC(=O)CSc1nnc(CNC(=O)Cc2ccccc2)n1C	-2.4%	6.1%	-2.8%	2.9%	7.1%	-10.5%	8.7%	10.1%
Cc1cc(C)cc(Oc2ccc(NC(=O)C3CC=CCC3C(=O)O)cc2)c1 (stereo not drawn)	2.2%	1.1%	.	.	7.6%	?	.	-13.4%
COc1ccc(C(O)c2nc3ccccc3n2C)cc1OC (stereo not drawn)	-19.6%	-12.6%	7.7%	3.6%	-14.2%	?	-2.2%	?
CCCCOC1(c2ccccc2)OC(=O)c2ccccc21 (stereo not drawn)	45.9%[14.3 µM]	-9.8%	-7.3%	-9.8%	4.9%	1.9%	18.7%	-11.7%
CCn1c(/C=C/c2cccc([N+](=O)[O-])c2)nc2ccccc2c1=O	-13.2%	-1.0%	1.7%	-5.5%	12.5%	-15.5%	-14.4%	-26.6%
CN1CCN(c2ccc(S(=O)(=O)N3CCCCC3)cc2NC(=O)Cc2c(F)cccc2Cl)CC1	-8.0%	1.6%	.	.	2.2%	?	.	-9.7%
Cc1c(C(=O)NCc2cccs2)oc2ccc(Br)cc12	?	12.8%	3.8%	-5.8%	-16.0%	7.3µM*	-7.9%	40.6%[activator]
Cc1ccc(Cl)cc1N1CCN(CC(=O)Nc2ccc3[nH]c(=O)[nH]c3c2)CC1	9.6%	24.0%	-0.1%	6.2%	-14.0%	3.9%	-13.6%	-14.0%
COC(=O)Cn1c(=O)c2c(nc3n2CCCN3CCc2ccccc2)n(C)c1=O	-0.8%[46.1 µM]	2.7%	.	.	2.1%	5.4%[46.1 µM]	1.4%	0.8%
O=C(Cc1ccc(-c2ccccc2)cc1)NCCS(=O)(=O)N1CCN(c2ccc(F)cc2)CC1	-9.1%[46.1 µM]	.	?	-0.5%	.	.	.	3.3%
C=CCn1c(SCC(=O)OCc2ccccc2)nc2c1c(=O)n(C)c(=O)n2C	0.0%	-8.8%	-8.4%	-2.2%	1.8%	1.1%	-93.2%	-25.2%
c1cc2c3c(cccc3c1)C(N1CCCCCC1)=N2	-11.8%	1.3%	-4.6%	3.5%	-2.0%	?	-3.7%	-18.1%
O=C(Nc1ccccc1)Nc1ncc([N+](=O)[O-])s1	7.08µM*	-4.3%	.	.	-13.4%	?	.	10µM*
C/C(=C1/SC(=S)N(CCC(=O)O)C1=O)c1ccc(O)cc1	-12.1%	0.0%	-12.9%	-6.4%	-18.6%	11.4%	?	0.0%
CCN(CC)c1ccc(C(=O)NCc2ccc3c(c2)CCN3C(=O)c2ccc(F)cc2)cc1	-1.4%[46.1 µM]	.	-18.2%	-1.8%	.	.	.	-16.7%
CCOc1ccc(S(=O)(=O)N(C)c2ccc(OCC(=O)Nc3nccs3)cc2)cc1	23.5%[46.1 µM]	0.1%	.	.	7.4%	?	.	?
O=C(c1ccc(Cl)cc1)N1CCC(O)(CSc2ccccc2)CC1	11.8%	-0.1%	7.0%	3.7%	-15.3%	6.3%	-8.2%	-8.9%
COc1ccccc1C(=O)O/N=C(\N)c1ccc(Cl)cc1	-6.2%	-17.1%	-0.6%	-1.1%	-16.1%	-9.8%	-50.5%	48.2%[activator]
O=C(C(Cc1ccccc1)NS(=O)(=O)c1ccc(F)cc1)N1CCC2(CC1)OCCO2 (stereo not drawn)	-2.7%	3.2%	3.6%	1.4%	-0.3%	2.4%&2.4%[46.1 µM]	2.3%	-14.7%
COc1ccc(C(=O)C2CCCN(C(=O)c3ccccc3C(C)=O)C2)cc1F (stereo not drawn)	8.1%	-0.2%	.	.	2.1%	-0.6%[46.1 µM]	5.5%	12.4%
O=c1[nH]c2ccc(NCc3ccc(-c4ccc(F)cc4)o3)cc2[nH]1	-6.6%[46.1 µM]	.	?	-4.8%	.	0.4%[46.1 µM]	.	-32.8%
CCOc1cc(/C=N/NC(=O)COc2nc(C)cc(COC)c2C#N)ccc1O	.	-13.9%	-0.7%	-1.1%	11.8%	-1.8%	3.4%	-5.3%
Cc1cc(=O)oc2cc(OCC(=O)N3C[C@H]4C[C@@H](C3)c3cccc(=O)n3C4)c(Cl)cc12	.	-7.0%	.	.	-20.0%	.	10.0%	-6.7%
CCOC(=O)c1cnn(-c2ncnc3sc(CC)cc23)c1N	18.5%	-8.8%	?	-5.1%	-4.3%	16.8%	-38.6%	15.6%
O=C(NCCc1ccccc1)c1ccc(CS(=O)(=O)c2ccc(Br)cc2)o1	-17.2%[46.1 µM]	-1.2%	-4.4%	-1.9%	7.0%	-4.6%&-4.6%[46.1 µM]	-12.6%	-19.8%&0.0%
CC(=O)Nc1ccc(S(=O)(=O)Nc2nc3ccccc3nc2N2CCCCCC2)cc1	-0.9%	-5.8%	?	-6.6%	-1.0%	-5.4%	11.5%	-4.3%
CC(=O)/C(=C/N(C)C)Sc1ccc(C)cc1	3.2%	9.9%	-3.9%	8.6%	-19.6%	8.5%	-13.1%	-7.1%
CSc1nc(C2CC2)cc(-c2cccs2)c1C#N	3.2%	-5.3%	-1.4%	-7.5%	-6.1%	10.2%	3.5%	.
CCOC(=O)COc1ccc(/C=C2\NC(=S)N(CC)C2=O)cc1	1.0%	17.3%	-9.4%	-10.8%	3.3%	-3.5%	-9.9%	?
CCOc1ccc(/C=N/n2cnnc2)cc1	17.2%	1.6%	-7.7%	-1.4%	2.7%	9.5%	-17.6%	17.3%
CC(C)N1C(=O)CC(Nc2cccc3cccc(N)c23)C1=O (stereo not drawn)	-0.2%	-7.5%	.	.	-25.4%	9.5%[46.1 µM]	.	-6.6%

More structures:
Structure	LASV entry inh	SARS PLP yeast	Cruzain inh noDet	Cruzain Triton	RE007 growth inh	Marburg entry inh	NS1 function inh	StopGo reporter
O=C(CSc1nnc(NC(=O)CN2CCOCC2)s1)Nc1ccccc1	3.9%	-1.3%	-2.5%	0.6%	1.8%	5.0%	3.0%	0.0%
OC(C#CCN1CCCCC1)(c1ccccc1)c1ccccc1	1.2%[46.1 µM]	6.5%	.	.	-9.0%	?	2.6%	-9.7%
O=C(N/N=C/C=C/c1ccccc1)c1cc(C2CC2)[nH]n1	1.5%	-0.8%	.	.	11.3%	?	-0.4%	6.4%
S=c1[nH]nc(COc2ccccc2)n1/N=C/c1ccccc1Cl	?	10.2%	.	.	-14.0%	23.7%	-0.7%	3.4%
Clc1ncc(CN2CCN(Cc3ccccc3)CC2)s1	-3.5%	6.7%	-4.1%	4.8%	5.2%	1.4%	6.5%	-22.1%
CN(c1ccc(OCC(=O)OCC(=O)Nc2ccc(Br)cc2)cc1)S(=O)(=O)c1cccs1	-8.1%	20.4%	?	-4.4%	4.9%	?	6.5%	-2.3%

Random draw from the library; about 4.8% have a hit in one of these screens.
